GALR2 agonist: GALR2 (human) receptor agonism; 0.48% of 140,000 active; AID 803; GALR2-expressing cells, agonist activation read-out; O43603; activation, %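 (tested at 5 µM)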;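 active = above mean plus 3 SD of all compounds, about 5% in these data, not always enough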;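 also: 0% = vehicle buffer wells and 100% = reference agonist at full effect; tested in CHO reporter cells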
Target sequence (O43603 whole entry, looked up): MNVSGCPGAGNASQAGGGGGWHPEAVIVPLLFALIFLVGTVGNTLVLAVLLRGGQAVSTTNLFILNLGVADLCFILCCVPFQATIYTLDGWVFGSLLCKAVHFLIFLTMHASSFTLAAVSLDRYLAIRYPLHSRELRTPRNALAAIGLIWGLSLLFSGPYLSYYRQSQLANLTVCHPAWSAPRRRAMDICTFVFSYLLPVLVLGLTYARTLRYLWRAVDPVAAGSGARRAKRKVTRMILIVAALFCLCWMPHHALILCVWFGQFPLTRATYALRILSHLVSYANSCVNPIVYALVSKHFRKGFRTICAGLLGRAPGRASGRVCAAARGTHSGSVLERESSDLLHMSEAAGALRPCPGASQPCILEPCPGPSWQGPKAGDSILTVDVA
RGS16-Gao: modulates binding between human RGS16 and Galphao. O15492+P09471. bead-based flow cytometry RGS16-Galphao binding, fluorescence; actives lie on both sides. binding response (% of control), % at 10 µM. 0.38% of 220,000 active;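 active = below 25% or above 175%, edge rows of some plates excepted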;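 also: Galphao activated by GDP with aluminum fluoride before binding; 100% = wells without compound and 0% = beads without RGS; some results beyond the cut were filed as inactive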
Target sequence (O15492 whole entry, looked up): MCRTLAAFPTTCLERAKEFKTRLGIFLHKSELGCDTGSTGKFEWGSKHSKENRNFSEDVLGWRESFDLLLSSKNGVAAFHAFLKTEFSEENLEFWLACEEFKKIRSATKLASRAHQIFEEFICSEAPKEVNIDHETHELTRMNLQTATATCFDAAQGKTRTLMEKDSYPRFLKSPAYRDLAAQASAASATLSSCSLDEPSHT
Target sequence (P09471 whole entry, looked up): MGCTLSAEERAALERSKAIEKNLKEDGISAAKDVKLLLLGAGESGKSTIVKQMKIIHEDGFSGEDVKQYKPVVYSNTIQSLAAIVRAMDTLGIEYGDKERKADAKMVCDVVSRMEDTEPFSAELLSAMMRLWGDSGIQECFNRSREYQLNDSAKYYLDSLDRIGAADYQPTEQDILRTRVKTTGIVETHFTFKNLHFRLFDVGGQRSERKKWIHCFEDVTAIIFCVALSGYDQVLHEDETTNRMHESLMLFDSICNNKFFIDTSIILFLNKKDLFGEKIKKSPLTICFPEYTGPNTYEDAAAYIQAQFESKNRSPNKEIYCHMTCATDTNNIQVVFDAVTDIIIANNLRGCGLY
HSV replic up: HSV replication enhancement; HSV replication augmentation in cells, fold increase; maximum fold increase; 0.005% of 220,000 active;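 active = peak rise of 1.5-fold or more in the series; tested in PC3 cells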;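 also: first round at 10 µM; read as green reporter fluorescence; hits show the peak of a series up to 25 µM; 1 = signal of infected wells without compound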
PKD1 kinase inh: blocks activity of human protein kinase D1; Q15139; 0.056% of 200,000 active; inhibition, %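 (about 10 µM by stock and volumes)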; AID 797; PKD1 kinase fluorescence polarization assay;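 active = inhibition of 50% or more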;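 also: controls were vehicle for no effect and a reference inhibitor for full effect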
Insulin prom inh: TRM-6 insulin promoter activity inhibition | TRM-6 cells (human fetal islet line), insulin promoter-eGFP reporter, imaging; reporter expression induced with tamoxifen | inhibition, % at 2 µM | 0.9% of 130,000 active | AID 1273;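 active = inhibition above the mean plus 3 SD, with well images judged a real hit on visual review, cut at about 60% in these data, passing the limit was not always enough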
Insulin prom inh cell count: also measured in Insulin prom inh; calls as there; normalized cell count, %; measured here: cell count, toxicity; reference of the scale not given here;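 cells exposed to compound for 48 h; stained nuclei by imaging scaled within each plate; lower means fewer cells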
HSV replic up primary fold: second read-out of HSV replic up, no call of its own (marks repeat the call); fold increase; compound at 10 µM; measured here: primary screen fold increase 10 uM; tested in PC3 cells;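 GFP signal in the first replicate; 1 = infected wells without compound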
* = called active by the depositor; i = inactive; x = no result given.

Order of results – GALR2 agonist	RGS16-Gao	HSV replic up	HSV replic up primary fold	PKD1 kinase inh	Insulin prom inh	Insulin prom inh cell count
[1] COc1cc(NC(=O)c2ccc(Cl)cc2)c(OC)cc1Cl
  -0.8	102	i	0.74	1	52	92
[2] Cc1sc2ncn(CC(=O)NCCCC(=O)N3CCN(c4ccccn4)CC3)c(=O)c2c1C
  -1.7	99	i	1	-1	-164	89
[3] CCOC(=O)c1nnsc1NC(C)=O
  0.3	99	i	1	-12	-138	89
[4] COc1ccc(NC(=O)c2sc3nc(C)nc(N4CCOCC4)c3c2C)c(OC)c1
  x	100	i	0.93	-1	-7	82
[5] CCOC(=O)CC(=O)CSc1ncnc2c1oc1ccccc12
  -1.0	98	x	x	-5	3	105
[6] CCOc1ccc(C(=O)Nc2cccc(-c3nc4ccccc4[nH]3)c2C)cc1[N+](=O)[O-]
  -2.0	142	i	0.9	-13	16	90
[7] Cc1onc(-c2c(F)cccc2Cl)c1C(=O)NCCCN1CCOCC1
  -0.9	87	i	1.1	-2	10	83
[8] CN(C)CCNc1ncnc2c1sc1nc(N3CCCC3)c3c(c12)CC(C)(C)OC3
  x	103	i	0.79	x	x	x
[9] O=C(COC(=O)CCc1ccccc1)Nc1ncc(Cl)cc1Cl
  -1.5	151	i	1	-6	-10	113
[10] Nc1c2c(nc3ccccc13)CCC2
  -2.6	111	i	1	-4	-100	109
[11] CCCCN(C)C(=O)C(Cc1ccccc1)NS(=O)(=O)c1ccc2c(c1)c(=O)n(C)c(=O)n2C (stereo unspecified)
  -1.0	101	i	0.89	-5	x	x
[12] COc1cccc(N(C(=O)Cn2nnc(-c3ccc(Cl)cc3)n2)C(C(=O)NCC2CCCO2)c2ccc(C)cc2)c1 (stereo unspecified)
  x	108	i	1.1	3	x	x
[13] CCn1cc(C(=O)N2CCCC2)c(=O)c2cc(S(=O)(=O)N3CCOCC3)ccc21
  -2.7	108	i	0.9	-6	62	105
[14] COc1cc2c(=O)n(Cc3ccccc3)c(=O)n(CC(=O)NCc3ccco3)c2cc1OC
  -0.2	98	i	0.91	-6	48	99
[15] CC(Nc1ccccc1CO)C(=O)Nc1cccc(Cl)c1Cl (stereo unspecified)
  x	103	i	1.1	-5	x	x
[16] CC(=O)Nc1cccc(-c2nnc3n2CC(C)S3)c1 (stereo unspecified)
  1.1	100	i	0.88	3	13	109
[17] O=C(CC(c1ccccc1)c1ccccc1)Nc1ncn[nH]1
  -2.6	101	i	1	1	50	101
[18] OC(c1cccc(OCc2ccccc2)c1)c1nnc(-c2ccccc2)o1 (stereo unspecified)
  -3.6	100	i	0.91	11	-43	79
[19] CCCCCCCCS(=O)C1CS(=O)(=O)CC1O (stereo unspecified)
  x	102	i	0.92	x	x	x
[20] COc1ccc(CN2CC(C(=O)NCCc3ccccc3)CC2=O)cc1 (stereo unspecified)
  -1.9	101	i	1.1	-8	-11	93
[21] CCOC(=O)N1CCN(c2c(N3CCc4ccccc43)c(=O)c2=O)CC1
  -2.2	101	i	1	-8	x	x
[22] O=C(CCC(=O)Nc1ccccc1)NCCO
  -2.7	100	i	1	11	x	x
[23] O=C(NNC(=S)NCc1ccccc1)c1ccc(Br)o1
  x	101	i	0.89	-6	x	x
[24] Cc1cc(C)cc(N(CC(=O)N2CCN(Cc3ccccc3)CC2)S(=O)(=O)c2c(C)noc2C)c1
  -1.5	98	i	0.95	-7	x	x
[25] CCOC(=O)c1ccccc1NC(=O)CN1CCC(n2nnc3cc(C(F)(F)F)ccc32)CC1
  x	100	i	0.92	x	x	x
[26] COc1cccc(-n2nnnc2SCC(=O)Nc2ccc3c(c2)OCCO3)c1
  -3.5	95	x	x	0	17	120
[27] CN(C1=NC(=O)CS1)c1ccc(O)cc1
  x	88	i	0.82	x	x	x
[28] COCCNC(=O)c1ccc(CN2CCc3ccccc3C2)cc1
  -2.3	100	i	0.97	1	-7	83
[29] C/C(=N\NC(=O)c1cc2ccccc2cc1O)c1ccc2c(c1)OCO2
  -3.2	103	x	x	-4	x	x
[30] CCCCCCCc1nc2c(=O)n(C)c3ccccc3c2o1
  -2.3	95	i	0.68	1	-25	118

(cont.)
Order of results – GALR2 agonist	RGS16-Gao	HSV replic up	HSV replic up primary fold	PKD1 kinase inh	Insulin prom inh	Insulin prom inh cell count
[31] CCCCC(=O)Nc1ccc(Br)cc1C(=O)O
  -2.4	94	i	0.96	5	-49	118
[32] CNC(=O)COc1ccc(C=O)cc1OC
  -1.3	11*	i	1.1	-15	16	159
[33] CCOC(=O)/C(C#N)=C\C1=C(N2CCOCC2)CC(C)(C)OC1
  x	100	i	1	-3	-43	143
[34] CC1(/[N+]([O-])=C/c2cccc(Cl)c2)CCCCC1=O (stereo unspecified)
  x	104	i	0.65	x	x	x
[35] N/C(=N\OC(=O)Nc1ccccc1)c1ccno1
  x	101	i	1	x	x	x
[36] COc1ccc(OCC(=O)C2CC2)c(C#N)c1
  x	97	i	1	x	x	x
[37] CCC(=O)c1cc2c(C)cc(=O)oc2c(C)c1OC(C)=O
  1.1	101	i	0.94	13	33	112
[38] CN(C)CCCN(C(=O)c1ccco1)c1nc2ccc(F)cc2s1
  x	102	i	0.86	-9	x	x
[39] Cc1cc(C)c(/C([O-])=C(/C(=S)Nc2ccc(SC(F)F)cc2)[n+]2ccccc2)cc1C
  x	100	i	0.93	0	x	x
[40] CC(C)Cn1c(-c2ccc(Br)o2)n[nH]c1=S
  0.6	74	i	0.97	-4	3	120
[41] O=C(COc1ccc2c(-c3ccccc3)cc(=O)oc2c1)NCc1cccs1
  -2.6	103	i	0.98	7	x	x
[42] COc1ccc(OC)c(C(c2nnnn2Cc2ccccc2)N2CCC(C(N)=O)CC2)c1 (stereo unspecified)
  0.3	103	i	0.93	-11	69	84
[43] CCn1c(CCNC(=O)c2ccccc2Cl)n[nH]c1=S
  0.2	94	i	0.9	6	x	x
[44] Cc1ccc(SCC(=O)NC(=O)NCc2ccco2)c(C)c1
  -1.9	95	i	0.97	-3	-39	130
[45] O=[N+]([O-])c1ccc(N2CCN(S(=O)(=O)c3ccccc3)CC2)c2cccnc12
  x	133	i	0.84	-3	40	128
[46] CCOc1ccc(CCNC(=O)COC(=O)Cn2cnc3ccccc3c2=O)cc1OCC
  x	103	i	1	0	x	x
[47] Cc1cccc(OCc2nc(C)cc(=O)[nH]2)c1
  -3.0	98	i	1	-8	-219	91
[48] CC(=O)c1ccc(Oc2nc(-c3cccnc3)nc3ccccc23)cc1
  x	102	x	x	2	0	153
[49] C=CCC(NCc1ccco1)c1ccc(OC)c(OC)c1 (stereo unspecified)
  -0.6	100	i	0.93	-4	-14	128
[50] O=C(c1ccccc1-c1nc2ccccc2[nH]1)N1CCCCC1
  -0.5	100	i	0.89	-5	x	x
[51] CC(=O)Cc1nsc(NC(=O)c2ccc(-c3cccc(Cl)c3)o2)n1
  x	107	i	0.95	0	x	x
[52] COc1ccc2[nH]c3c(c2c1)CCNC3C1CC=C(C)CC1 (stereo unspecified)
  x	103	i	0.71	-10	x	x
[53] Cc1ccc(-n2c(C)cc(/C=N/Nc3ccc([N+](=O)[O-])cn3)c2C)cc1
  -0.9	92	x	x	-2	-58	106
[54] Cc1ccc(C(=O)Nc2nccc(-c3cccs3)n2)cc1
  0.1	102	i	0.82	3	-11	184
[55] COc1ccc(C[C@H]2CN3C(=NC[C@@H]3Cc3ccc(O)cc3)N2C[C@H](C)NC(=O)c2ccc(C)c(Br)c2)cc1
  x	95	i	0.57	x	x	x
[56] CC1CCN(C(C(=O)Nc2ccc(C(C)C)cc2)c2ccc3c(c2)OCO3)CC1 (stereo unspecified)
  -3.5	100	i	0.92	1	x	x
[57] c1ccc2c(c1)NC1(CCCCCC1)n1c-2nc2ccccc21
  -1.3	101	i	0.92	1	47	132
[58] CC(C)(C)N(C=C(Cl)Cl)C(=O)NC1CCCCC1
  -3.3	103	i	0.92	-2	26	91
[59] CCOc1cc(/C=N/NC(=O)c2ccc(CSc3nncn3C)cc2)ccc1OCC(=O)N1CCOCC1
  x	106	i	1.1	-8	-17	96
[60] C=CCn1c(C)cc(C(=O)COC(=O)c2ccc(N)c([N+](=O)[O-])c2)c1C
  -2.6	102	i	0.93	-4	44	144

4 of the compounds above, field by field.
#45 O=[N+]([O-])c1ccc(N2CCN(S(=O)(=O)c3ccccc3)CC2)c2cccnc12
  GALR2 agonist: x
  RGS16-Gao: 133
  HSV replic up: i
  HSV replic up primary fold: 0.84
  PKD1 kinase inh: -3
  Insulin prom inh: 40
  Insulin prom inh cell count: 128

#46 CCOc1ccc(CCNC(=O)COC(=O)Cn2cnc3ccccc3c2=O)cc1OCC
  GALR2 agonist: x
  RGS16-Gao: 103
  HSV replic up: i
  HSV replic up primary fold: 1
  PKD1 kinase inh: 0
  Insulin prom inh: x
  Insulin prom inh cell count: x

#47 Cc1cccc(OCc2nc(C)cc(=O)[nH]2)c1
  GALR2 agonist: -3.0
  RGS16-Gao: 98
  HSV replic up: i
  HSV replic up primary fold: 1
  PKD1 kinase inh: -8
  Insulin prom inh: -219
  Insulin prom inh cell count: 91

#48 CC(=O)c1ccc(Oc2nc(-c3cccnc3)nc3ccccc23)cc1
  GALR2 agonist: x
  RGS16-Gao: 102
  HSV replic up: x
  HSV replic up primary fold: x
  PKD1 kinase inh: 2
  Insulin prom inh: 0
  Insulin prom inh cell count: 153

(next part)
No. | canonical_smiles | GALR2 agonist | RGS16-Gao | HSV replic up | HSV replic up primary fold | PKD1 kinase inh | Insulin prom inh | Insulin prom inh cell count
61 | Clc1nc2ccccc2cc1-c1nnn(-c2ccccc2)n1 | x | 96 | i | 0.84 | 2 | x | x
62 | CC(C)(C)C(=O)N1CCC(O)(CS(=O)(=O)Cc2ccc(Cl)cc2)CC1 | -2.7 | 93 | i | 0.96 | -19 | -55 | 99
63 | CCOC(=O)c1c(N)c2cc([N+](=O)[O-])ccc2n1C | x | 102 | i | 0.98 | x | x | x
64 | CSCCC(NC(=O)C1CCC(C)CC1)C(=O)O (stereo unspecified) | -2.4 | 64 | i | 0.79 | -5 | x | x
65 | CCOC(=O)CSc1ncnc2c1c(-c1ccccc1)cn2-c1ccc(OC)cc1 | 0.4 | 104 | x | x | -2 | x | x
66 | O=C(O)CCCN1C(=O)/C(=C/c2ccncc2)SC1=S | x | 137 | i | 0.96 | x | x | x
67 | CCOC(=O)c1ccc(N2CCCCC2)c(NS(=O)(=O)c2ccc(C)cc2)c1 | x | 99 | i | 0.78 | x | x | x
68 | Cc1ccc(Cl)cc1NC(=O)Cn1cc2c(n1)CCCC2 | -1.5 | 105 | i | 1 | -12 | x | x
69 | Cc1ccc(N=Cc2c(O)n(C)c(=O)n(C)c2=O)nc1 | -0.6 | 65 | i | 0.7 | 5 | 0 | 99
70 | Cc1ccc(Cl)cc1-n1c(=O)cc(N2CCN(C(=O)c3ccco3)CC2)[nH]c1=O | -0.4 | 101 | i | 1 | -8 | 5 | 164

(list continues)
No. | canonical_smiles | GALR2 agonist | RGS16-Gao | HSV replic up | HSV replic up primary fold | PKD1 kinase inh | Insulin prom inh | Insulin prom inh cell count
71 | CNC(=O)C1CC(=O)N(CCCc2ccccc2)C(=Nc2ccccc2)S1 (stereo unspecified) | -0.8 | 22* | i | 0.88 | -2 | -25 | 134
72 | C=C(C)CNC(=S)N/N=C/C1=CCC2CC1C2(C)C (stereo unspecified) | 0.2 | 102 | i | 0.99 | 0 | x | x
73 | Cn1cccc1-c1nc2ccc(NC(=O)c3ccccc3)cc2[nH]1 | -0.5 | 99 | i | 1 | -1 | -50 | 86
74 | CC1CCCN(C(=O)c2ccccc2OC2CCN(S(C)(=O)=O)CC2)C1 (stereo unspecified) | x | 101 | i | 1.1 | -2 | 33 | 45
75 | Cc1sc2c(c1C)C(=O)NC(c1cccc(O)c1)N2 (stereo unspecified) | -1.3 | 98 | i | 0.87 | 18 | 64 | 81
76 | O=C(CSC1=NCCS1)Nc1ccc(S(=O)(=O)N2CCCCCC2)cc1 | 0.2 | 103 | i | 0.77 | -4 | x | x
77 | COc1ccccc1CNC(=O)CNCC1CCCO1 (stereo unspecified) | -2.4 | 97 | i | 1 | -4 | -48 | 117
78 | O=C(CCc1nnc(C2CCCCC2)o1)NCc1ccc(F)c(F)c1 | x | 102 | i | 1.1 | -3 | x | x
79 | COc1ccc(NC(=O)CN2CCN(S(=O)(=O)c3ccc(Cl)cc3)CC2)cc1 | -1.3 | 107 | i | 0.98 | -8 | 19 | 147
80 | N#CCCN(Cc1cccnc1)C(=O)c1sc2cc(F)ccc2c1Cl | -1.6 | 107 | i | 1 | -2 | -15 | 109
81 | COc1ccc(OC)c(-c2cc(C(=O)N3CCN(c4ncccn4)CC3)c3ccccc3n2)c1 | -0.6 | 89 | i | 0.92 | 12 | -44 | 103
82 | CC(=O)Nc1ccc(OCC(=O)NC(C)C(C)C)cc1 (stereo unspecified) | -1.1 | 105 | i | 0.82 | -8 | 22 | 72
83 | COc1ccc(CN(C(C)=O)c2ccccc2C(=O)O)cc1 | x | 95 | i | 0.82 | x | x | x

Screens deposited in PubChem by several laboratories.
